Assay outcomes (PubChem)
Cruzain Triton = cruzain (T. cruzi) inhibition with detergent | purified cruzain, Z-FR-AMC fluorescence, 0.01% Triton | AID 1478 | Potency, µM, for inactives: max response, negative = inhibition, hits mostly inhibitors | P25779 | 0.43% of 200,000 active;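 note: plate controls were neutral wells for no effect and buffer without enzyme for full effect; nearly all actives have a fitted effect of over 40% in size; top concentration of the series not given in the record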
Target sequence (P25779 123-467 limits assumed): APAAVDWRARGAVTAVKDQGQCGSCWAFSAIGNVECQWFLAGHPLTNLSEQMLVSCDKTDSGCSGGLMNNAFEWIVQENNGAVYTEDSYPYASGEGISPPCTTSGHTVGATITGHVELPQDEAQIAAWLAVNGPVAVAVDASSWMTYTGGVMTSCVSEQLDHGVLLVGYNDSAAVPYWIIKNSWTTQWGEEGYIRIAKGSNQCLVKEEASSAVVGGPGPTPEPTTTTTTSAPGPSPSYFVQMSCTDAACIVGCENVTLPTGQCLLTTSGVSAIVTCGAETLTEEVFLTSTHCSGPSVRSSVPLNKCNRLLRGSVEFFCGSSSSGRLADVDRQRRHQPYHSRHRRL
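15 min RT preincubation of 1.5 nM cruzain with compound, then 2 uM Z-FR-AMC added; kinetic AMC fluorescence, 60 s delta. Triton X-100 0.01%, pH 5.5.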
MARV entry inh = inhibitors of Marburg virus binding or cell entry; Marburg virus pseudotyped entry inhibition, cell reporter; control for the full effect not named in the record; about a third of the inactives were read at about 46 µM; AID 540276; Potency, µM (doses to about 37.8 µM), for the others: top-dose activity change, negative = inhibition, hits mostly inhibitors; 1.8% of 300,000 active; active = well fitted inhibition curve with a large enough effect; inconclusive = small, poorly fitted or top-dose-only effect, or effect the other way; inactive = flat fitted curve, though single readings scatter; tested in HEK293 cells; about a fifth of its hits are not listed in these tables; note: % is set by controls: 0 for no effect and ±100 for the full control effect; luciferase read-out
2A StopGo = FMDV 2A StopGo reporter, luciferase signal; human cells with a luciferase reporter of 2A StopGo recoding; control for the full effect not named in the record; Potency, µM (series often up to 57.9 µM), inactives show at the top dose signal change, negative = less light; 1.2% of 410,000 active; active = well fitted falling curve with a large enough effect; inconclusive = small, poorly fitted or top-dose-only effect; inactive = no such curve, though single readings can be large or run the other way; tested in HEK293T cells; note: % is set by controls: 0 for no effect and ±100 for the full control effect; nearly all actives have a fitted effect of over 45% in size; luciferase light after 4 h
RE007 growth inh = less growth of the S. pombe RE007 Vpr strain. S. pombe RE007 Vpr strain, BacTiter-Glo ATP luminescence, 24 h; control for the full effect not named in the record. Potency, µM (top dose mostly 92.2 µM), for inactives: top-dose activity change, negative = less growth. 0.21% of 360,000 active. AID 651644; active = well fitted falling curve with a large enough effect; inconclusive = small, poorly fitted or top-dose-only effect; inactive = no such curve, though single readings can be large or run the other way;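 note: % is set by controls: 0 for no effect and ±100 for the full control effect; nearly all actives have a fitted effect of over 50% in size; the assay follows cell death caused by Vpr and the record does not say whether a fall means rescue or toxicity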
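Fission yeast RE007 carrying one integrated HIV-1 vpr copy, seeded at OD 0.01 in PMG+AL medium with 23 nL pinned compound. Grown 24 h at 30 degrees; viability read by BacTiter-Glo luminescence after 5 min.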
NS1 inh = blocks influenza NS1 protein function. AID 2326. S. cerevisiae slowed by influenza A NS1, growth recovery by OD600. 0.4% of 270,000 active. Potency, µM (doses to about 46.1 µM), for inactives: top-dose activity, positive = more growth; active means well fitted rising curve with a large enough effect; inconclusive means small, poorly fitted or top-dose-only effect; inactive means no such curve, though single readings can be large or run the other way; note: nearly all actives have a fitted effect of over 50% in size
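A cell-based growth assay was used: compounds that relieve NS1-induced slow growth of budding yeast raise OD600. Assay medium was yeast nitrogen base with ammonium sulphate and -URA supplement, pH 6.0, with 2% galactose.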
Cruzain inh noDet = inhibitors of Trypanosoma cruzi cruzain without detergent; 2.3% of 200,000 active; purified cruzain, Z-FR-AMC fluorescence, no detergent; Potency, µM, without a hit: max response, negative = inhibition, usual class: inhibitors;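 note: plate controls were enzyme without inhibitor for no effect and buffer without enzyme for full effect; nearly all actives have a fitted effect of over 40% in size; top concentration of the series not given in the record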
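Purified cruzain at 1.5 nM, pre-incubated 15 min with compound at room temperature in 100 mM sodium acetate pH 5.5, 5 mM DTT, 0.00005% Triton X-100. Reaction started with 2 uM Z-FR-AMC; AMC fluorescence increase over 60 s gives rate.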
Lassa entry inh = Lassa virus entry inhibition | Potency, µM (titrated, usually from 37.9 µM), without a hit: top-dose activity change, negative = inhibition, actives largely listed as inhibitors | Lassa virus pseudotype entry inhibition, cell reporter; control for the full effect not named in the record | 1.2% of 300,000 active; active means well fitted inhibition curve with a large enough effect; inconclusive means small, poorly fitted or top-dose-only effect, or effect the other way; inactive means flat fitted curve, though single readings scatter; tested in HEK293 cells; note: % is set by controls: 0 for no effect and ±100 for the full control effect; nearly all actives have a fitted effect of over 50% in size; luciferase read-out
SARS PLpro yeast = SARS-CoV PLP inhibition in yeast; S. cerevisiae expressing SARS-CoV PLpro, growth rescue; control for the full effect not named in the record; AID 485353; 0.19% of 330,000 active; Potency, µM (titrated, usually from 32.9 µM), without a hit: top-dose activity, positive = growth rescue; active means well fitted rising curve with a large enough effect; inconclusive means small, poorly fitted or top-dose-only effect; inactive means no such curve, though single readings can be large or run the other way; note: 0% is about no effect; nearly all actives have a fitted effect of over 55% in size; growth read by luminescence after 48 h
* hit, by the source's call; ? = inconclusive; / = not tested or not shown; & = joins results of further samples; [ ] = dose if it differs, or a comment. Unless noted, calls come from the whole dose curve; as a rule, active = well fitted curve in the direction sought with a large enough effect; inconclusive = small, poorly fitted or top-dose-only effect, or another doubt; inactive = no such curve, though single readings can be large; an effect the other way counts as inactive or inconclusive. Potency is the fitted concentration of half-maximal effect.

SMILES	Cruzain Triton	MARV entry inh	2A StopGo	RE007 growth inh	NS1 inh	Cruzain inh noDet	Lassa entry inh	SARS PLpro yeast
CCn1cc(C(=O)NC(C)c2ccccc2)c(=O)c2cc(S(=O)(=O)N3CCc4ccccc4C3)ccc21 (stereo not given)	-3.9%	-11%[46.1 µM]	-14%	/	/	2%	-11%[46.1 µM]	/
COC(=O)C1=C(C)NC(=O)C1(NS(=O)(=O)c1ccc(NC(C)=O)cc1)C(F)(F)F (stereo not given)	-0.4%	6%	-3%	-13%	-4%	-2%	14%[14.3 µM]	?
COc1ccc(OC)c(/C=N/NC(=O)CNC(=O)c2cccc3ccccc23)c1	/	?	-14%	4%	1%	/	-9%	-2%
O=C(O)c1cccc2cccnc12	-0.7%	10%	-7%	5%	2%	5%	13%	6%
Cc1nc(-c2ccc(F)cc2)c(CC(=O)N2CCN(S(=O)(=O)c3ccc(F)cc3)CC2)s1	/	?	-20%	15%	0%	/	-19%	-2%
COc1cc(/C=N/NC(=O)/C(=C/c2ccccc2)CCO)ccc1O	-6.1%	13%	14%	7%	8%	6%	-6%	7%
C[C@H](NC(=O)c1[nH]cnc1C(=O)Nc1ccc(Cl)cc1)C(=O)OC(C)(C)C	/	/	-14%	10%	6%	/	/	7%
Cc1ccc(S(=O)(=O)N(C)C)cc1NC(=O)COC(=O)C1COc2ccccc2O1 (stereo not given)	/	-22%[14.2 µM]	-5%	4%	/	/	-8%	2%
CC(C)(NO)/C(=N\O)c1ccc(Cl)cc1	0.5%	25%	-23%	-10%	-3%	3%	15%	-6%
COc1ccc(/C=C/C(=O)Nc2cc(=O)n(C)c(=O)n2C)cc1	-9.1%	23%	4%	14%	-6%	-3%	18%	-33%
Cc1ccc(-c2nc3cnccn3c2Nc2ccc3c(c2)OCO3)cc1	-9.1%	/	-28%	7%	-49%	-8%	/	-11%
Cc1[nH]c(=O)[nH]c(=O)c1S(=O)(=O)Nc1ccc(S(N)(=O)=O)cc1	/	7%	-11%	2%	0%	/	8%	1%
CC(C)(C)c1ccc(-c2conc2N)cc1	-11%	?	28%	-8%	-99%	-4%	-14%	-31%
CCc1ccc(S(=O)(=O)NC(=S)Nc2ccccc2)cc1	/	-4%[46.1 µM]	47%[activator]	4%	-4%	/	-13%	1%
Cc1ccc(-n2ncc3c(N4CCN(CCO)CC4)ncnc32)cc1Cl	0.5%	/	-15%	/	/	-4%	-2%[46.1 µM]	/
CC(C)(C)N1CC(C(=O)Nc2cccc(Cl)c2Cl)CC1=O (stereo not given)	/	0%	0%	0%	2%	/	3%	4%
O=c1[nH]c(O)c(N=Nc2cccc(S(=O)(=O)N3CCOCC3)c2)c(=O)[nH]1	/	/	32%[activator]	14%	1%	/	/	-1%
C=CCn1c(SCC(N)=O)nnc1-c1ccccc1O	15%	5%	8%	11%	-47%	0%	1%	5%
Cc1ccnc(NC(=O)CCC(=O)N(CC(=O)NCc2ccc(F)cc2)Cc2ccccc2)c1	/	6%[46.1 µM]	2%	15%	6%	/	/	1%
COC(=O)Nc1nc2ccc(Sc3ccccc3)cc2[nH]1	0.3%&0.6%&5.6%	19%	30%&51%[activator]	7%[18.4 µM]	5%	?	10%	-21%
O=S1(=O)CCN=C2SC3=C(CCCC3)N21	2.2%	1%	/	-3%	3%	3%	?	-8%
CNC(=S)N/N=C/c1cn(CCOc2ccccc2OC)c2ccccc12	-23%	?	0%	-2%	24%	32µM*	-28%	?
O=C(NCC(c1cccs1)S(=O)(=O)c1cccs1)c1ccc(Cl)cc1 (stereo not given)	-2.7%	/	?	/	/	-8%	-18%[46.1 µM]	/
CC(=O)Nc1ccc(Br)c(Cl)c1	/	6%[46.1 µM]	-16%	-23%	-2%	/	-3%[46.1 µM]	-3%
O=C(/C(=C/c1ccncc1)n1ccnc1)c1ccc(Cl)cc1Cl	/	/	22µM*	-2%	11%	/	/	0%
O=C(c1ccc2nc[nH]c2c1)N1CCN(c2cccc(Cl)c2)CC1	/	/	-14%	7%	-24%	/	/	-8%
COC(=O)C1=C(C)NC(C)=C(C(=O)OC(C)C)C1c1cccc2nonc12 (stereo not given)	-8.2%	/	?	5%	/	16%	/	0%
CC(=O)c1cccc(S(=O)(=O)Nc2ccc3nc(C)sc3c2)c1	/	-29%	-12%	18%	/	/	-1%	-1%
O=C(Cn1ncn2c(cc3ccccc32)c1=O)NCCC1=CCCCC1	4.7%	-16%	/	12%	-4%	-16%	0%	7%
CC1(C)C(=O)Nc2ccccc2N1C(=O)COc1ncnc2ccccc12	5.4%	3%	0%	-3%	?	2%	14%	2%
Cc1ccccc1N(C(=O)CCCC(=O)Nc1ccccn1)C(C(=O)NC1CCCC1)c1ccc(O)cc1 (stereo not given)	/	-30%[46.1 µM]	90%[activator]	1%	-13%	/	?	2%
O=C(/C=C/c1ccc(O)c([N+](=O)[O-])c1)c1ccc2ccccc2c1	/	-1%[46.1 µM]	2%	-16%	2%	/	15%[46.1 µM]	-1%
COC(C(=O)Nc1ccc(S(=O)(=O)Nc2cccc3ccccc23)cc1)c1ccccc1 (stereo not given)	-2.1%	-20%	0%	-8%	6%	?	?	-5%
COC(=O)[C@@]1(Cc2ccc(F)cc2)[C@H]2c3cc(C(=O)N(C)C)n(Cc4ccc(Cl)c(C(F)(F)F)c4)c3C[C@H]2CN1C(=O)c1ccccc1	-0.8%	/	-14%	-3%	/	?	/	/
Cc1ccc(C)c(N(C)C(=O)Cc2c(C(=O)O)[nH]c3ccc(Cl)cc23)c1	0.3%	7%[46.1 µM]	-11%	/	/	1%	-2%[46.1 µM]	/
CC(=O)N1CCc2cc(S(=O)(=O)NCC(=O)NCc3ccc(F)cc3)ccc21	/	-4%[46.1 µM]	-13%	6%	-8%	/	0%[46.1 µM]	-3%
CCOC(=O)C(C(C)C)C(N)Cc1ccc(F)cc1 (stereo not given)	/	11%[46.1 µM]	-5%	-8%	/	/	3%[46.1 µM]	2%
O=C(Nc1ccc(N2CCOCC2)c(Cl)c1)c1ccccc1F	8.0%	8%	/	8%	3%	-2%	-26%	-14%
Cc1sc(NC(=O)c2ccco2)c(C(c2ccc(F)cc2)N2CCN(C)CC2)c1C (stereo not given)	/	6.3µM*	-2%	2%	/	/	?	2%
COc1cccc(NC(=O)C(Sc2nnc3ccccn23)c2ccccc2)c1 (stereo not given)	-3.4%	-1%	10%	4%	8%	-5%	0%	-11%
COCc1nnc(NC(=O)c2ccc(NC(C)=O)cc2)s1	-12%	1%	33%[activator]	14%	0%	-6%	5%	20%
N=c1c(C(=O)NC2CCCC2)cc2c(=O)n3ccccc3nc2n1CC1CCCO1 (stereo not given)	/	?	-9%	-11%	0%	/	11%[46.1 µM]	2%
Cc1cccc2c1NC1(CCCC1)CC2C (stereo not given)	/	/	-24%	2%	0%	/	/	0%
CCOC(=O)C1CCCN(c2nc3ccccc3nc2C(C#N)C(=O)OCCOC)C1 (stereo not given)	-6.9%	-23%	0%	5%	1%	?	-21%	0%
COc1ccc(/C=N/NC(=O)C(=O)N2CCCC2)cc1	/	30%[46.1 µM]	59%[activator]	6%	1%	/	?	0%
CN(C)S(=O)(=O)c1cccc(NC(=O)c2ccc3c(c2)OCCO3)c1	/	-17%	-7%	12%	/	/	12%	3%
O=S(=O)(Nc1cc(Cl)ccc1-n1cncn1)c1ccccc1Cl	/	-4%	12%	10%	/	/	5%	-1%[6.58 µM]
CCN(CC)C(=O)Cn1c(=O)n(Cc2ccc(F)cc2)c(=O)c2sccc21	/	9%[46.1 µM]	-9%	9%	17%	/	-9%[46.1 µM]	6%
Cc1ccc(-c2cn3cccnc3n2)cc1NC(=O)Cc1ccccc1	0.5%	/	-18%	/	/	4%	2%[46.1 µM]	/
C#CCOCCOCCOCCNc1nc(N2CCN(C(=O)[C@H](Cc3ccc(O)cc3)n3cc([C@@H](N)C(C)CC)nn3)CC2)nc(N2CCN(C(=O)[C@H](Cc3cc4ccccc4[nH]3)n3cc([C@@H](N)CC(C)C)nn3)CC2)n1 (stereo not given in full)	/	/	-12%	17%	6%	/	/	-1%
CCc1ccc(NC(=O)c2ccc(NC(=O)C3CCCO3)cc2)cc1 (stereo not given)	/	?	-23%	6%	-14%	/	3%	-5%
CC(=O)NS(=O)(=O)c1ccc(NC(=S)NC(=O)COc2ccccc2C)cc1	-3.6%	?	0%	-2%	16%	16%	-3%	-1%
Cc1ccc(C(=O)NCc2cccnc2)cc1S(=O)(=O)N1CCCCCC1	/	-31%	-27%	4%	10%	/	?	3%
O=C1C(c2ccnc3ccccc23)=C(O)c2ccccc21	0.2%	?	-82%	-7%	1%	-19%	2.8µM*	-33%
CC(C)Cc1nnc(NC(=O)C2CC(=O)N(Cc3ccccc3)C2)s1 (stereo not given)	/	/	-13%	5%	0%	/	/	1%
O=C(O)CCCn1c(=O)[nH]c2ccccc2c1=O	1.1%	-2%	12%	6%	-1%	1%	-1%	1%
Cc1ccc(S(=O)(=O)Oc2ccc(C3C4=C(CCCC4=O)N(CCC(=O)O)C4=C3C(=O)CCC4)cc2Cl)cc1	-4.1%	5%	-5%	15%	23%	?	5%	-5%
COc1ccc(Cc2nc(C(=O)Nc3ccccc3)cs2)cc1	2.3%	?	20%	5%	-94%	-5%	?	-24%
Cc1cccc(/C=N/NC(=O)c2cc(C)nc3ccccc23)n1	/	/	?	-1%	4%	/	/	2%
O=P(/C(=N/O)Sc1ccccc1)(N1CCOCC1)N1CCOCC1	7.8%	-6%	15%	1%	2%	3%	6%	-3%
CC1CCN(C(CC(=O)c2ccccc2)C(=O)c2ccccc2)CC1 (stereo not given)	/	?	-17%	4.5µM*	/	/	?	/
COc1ccc(OC)c(C2=NOC(C(=O)N3CCC4(CC3)OCCO4)C2)c1 (stereo not given)	2.3%	-2%	21%	12%	1%	3%	0%	-1%
Cc1ccc(NC(=O)C2Cc3ccccc3CN2C(=O)c2ccco2)cc1S(=O)(=O)N(C)C (stereo not given)	/	-5%	-1%	-18%	-6%	/	5%	-3%

Compounds were not picked by outcome; about 4.8% have a hit in one of these screens.
